# CSC inhib: cancer stem cell viability inhibitors, primary screen, luminescence; 300,000 tested, 1.1% active; cancer stem cell-like cells viability; inhibition, % at 7.5 µM; AID 2717, 2010;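 active means mean at 75% or more and at least half the replicates too; inconclusive means mean and replicates disagree; tested in HMLE shEcad cells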;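 further: 0% = median of negative and 100% = median of positive control wells; the first replicate is given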
# Rce1 inhib: yeast Rce1p protease inhibitors, primary screen, biochemical, fluorescence, cell-free homogeneous. CAAX prenyl protease 2 (Saccharomyces cerevisiae (strain ATCC 204508 / S288c)), Q03530. yeast membranes, quenched prenylated peptide cleavage fluorescence. calls only. 290,000 tested, 0.27% active. AID 2563, 2010;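 active means fall in fluorescence gain of 50% or more versus controls, with final raw signal at or below 3038400; inconclusive means same 50% fall but final raw signal above 3038400; inactive means fall in fluorescence gain under 50%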;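 further: plate controls were neutral control wells for no effect and wells lacking membranes for full effect; tested at 10 µM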
# Target sequence (Q03530 whole entry, looked up): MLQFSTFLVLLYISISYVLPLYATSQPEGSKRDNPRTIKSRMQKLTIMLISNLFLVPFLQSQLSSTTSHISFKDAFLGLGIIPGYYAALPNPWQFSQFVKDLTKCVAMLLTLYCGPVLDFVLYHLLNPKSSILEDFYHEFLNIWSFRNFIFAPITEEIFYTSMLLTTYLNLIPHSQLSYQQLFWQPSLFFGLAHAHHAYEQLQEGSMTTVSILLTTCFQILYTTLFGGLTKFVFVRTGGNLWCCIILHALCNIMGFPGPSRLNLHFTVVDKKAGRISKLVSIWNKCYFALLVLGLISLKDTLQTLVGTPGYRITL
# PABP FP inh: PABP poly(A) RNA binding inhibitors, primary screen, biochemical, fluorescence polarization, uHTS. Polyadenylate-binding protein 1 (Homo sapiens), P11940. inhibition, % at 35 µM. 290,000 tested, 1% active;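 active means 50% or more with normal probe brightness, or confirmed in later tests; inconclusive means above 50% with abnormal brightness, or retests that disagree; inactive means below 50% or failed in later tests; about a fifth of its hits are not listed in these tables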;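 further: calls also rest on retests at 20 µM and on dose response follow-up; controls were probe without protein and protein plus probe with vehicle; some compounds called inactive have numbers as strong as hits; many hits fall short of the cut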
# Target sequence (P11940 whole entry, looked up): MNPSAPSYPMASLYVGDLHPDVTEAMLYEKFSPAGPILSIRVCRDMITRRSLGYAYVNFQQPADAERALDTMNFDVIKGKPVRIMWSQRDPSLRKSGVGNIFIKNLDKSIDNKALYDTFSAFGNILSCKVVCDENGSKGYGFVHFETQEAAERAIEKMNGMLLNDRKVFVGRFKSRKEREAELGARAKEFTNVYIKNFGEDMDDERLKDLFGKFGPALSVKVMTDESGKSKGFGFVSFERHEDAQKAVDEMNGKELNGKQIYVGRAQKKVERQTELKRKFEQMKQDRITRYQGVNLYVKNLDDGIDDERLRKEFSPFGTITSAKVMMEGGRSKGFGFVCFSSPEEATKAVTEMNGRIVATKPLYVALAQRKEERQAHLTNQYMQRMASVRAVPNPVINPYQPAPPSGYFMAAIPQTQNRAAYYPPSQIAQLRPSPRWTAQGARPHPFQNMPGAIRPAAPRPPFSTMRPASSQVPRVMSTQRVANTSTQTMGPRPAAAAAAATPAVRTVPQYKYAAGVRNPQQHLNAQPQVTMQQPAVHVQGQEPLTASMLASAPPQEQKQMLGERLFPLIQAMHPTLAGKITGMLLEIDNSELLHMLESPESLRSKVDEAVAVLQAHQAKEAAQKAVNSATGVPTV
# eIF4H inh: human eIF4H binding inhibitors, primary screen, translation initiation inhibitor project, biochemical, uHTS, fluorescence polarization; inhibition, % at 35 µM; eIF4H fluorescence polarization binding assay; Eukaryotic translation initiation factor 4H (Homo sapiens), Q15056; 290,000 tested, 0.94% active; AID 2012, 2009;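 active means 50% or more with normal probe brightness, or confirmed in later tests; inconclusive means above 50% with abnormal brightness, or retests that disagree; inactive means below 50% or failed in later tests; about a fifth of its hits are not listed in these tables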;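 further: calls also rest on retests at 20 µM and on dose response follow-up; 0% = protein and probe with vehicle and 100% = probe without protein; strong numbers were not always called active; many hits fall short of the cut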
# Yeast UUG start: modulators of yeast start codon fidelity, primary screen, whole organism, S. cerevisiae, single point, plate reader; AID 602363, 2012; activity score, % at 18.7 µM; 350,000 tested, 0.13% active; S. cerevisiae UUG-firefly luciferase reporter, luminescence/redox ratio;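 active means replicate mean at a twofold rise or more, about +100% in these data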;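 further: firefly luciferase made from a UUG start codon reports start codon fidelity; reporter light over untreated wells divided by growth signal over untreated wells; some hits fall short of that in this replicate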
# MT1-MMP act inh: blockers of MT1-MMP proenzyme processing, primary screen, HT1080 RFP-PRO-GFP cells, GFP/RFP fluorescence | 360,000 tested, 0.061% active | GFP/RFP ratio fluorescence, overnight; percent of plate control window, DMSO zero | Matrix metalloproteinase-14 (Homo sapiens), P50281 | GFP/RFP ratio change, % at 20 µM;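 active means GFP/RFP ratio change of at least 30% with cell ATP level not reduced by more than half and red fluorescence within 50% of control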; further: strong numbers were not always called active
#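 system = RFP-PRO-GFP reporter HT1080 cells | dosing = 20 µM single dose, 1% DMSO | timing = overnight cell settling, then overnight compound exposure, 37 °C, 5% CO2 | read-out basis = GFP/RFP fluorescence ratio | controls = DMSO and RFP-L50D-GFP cell wells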
# Env fusion inh: inhibitors of HIV-1 Env-driven cell-cell fusion, primary screen, HeLa-JRFL effector, CEM21 target cells, luciferase; inhibition, % at 12.3 µM; 360,000 tested, 1.1% active; AID 651610, 2012;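 active means mean replicate inhibition score of at least 50 and every replicate individually at or above 50; inconclusive means only one of the two criteria met; inactive means mean below 50 and not all replicates reaching 50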;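 further: 0% = plate neutral controls and 100% = maraviroc near 300 nM; one replicate is shown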
# eIF4H inh retest: recorded beside eIF4H inh, whose call it bears; inhibition, %; compound at 20 µM; confirmation average;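 mean of two retest wells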
# PABP FP inh retest: further read-out of PABP FP inh, marked with its call; inhibition, %; compound at 20 µM; confirmation repeats;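 mean of two retest wells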
# MT1-MMP act inh RFP: also measured in MT1-MMP act inh; calls as there; RFP signal change, %; measured here: RFP expression control read;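 0 = vehicle wells; hits needed this value within 50% of zero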
# * hit, by the source's call; i = inactive; u = inconclusive; x = not tested or not shown.
SMILES,CSC inhib,Rce1 inhib,PABP FP inh,eIF4H inh,Yeast UUG start,MT1-MMP act inh,MT1-MMP act inh RFP,Env fusion inh,others
Cc1ccc(N2CC(C(=O)Nc3nccs3)CC2=O)cc1Cl (stereo unspecified),57,i,5,11,-17,-1,-1,i,
COc1ccccc1N1C(=O)C2C(C(=O)c3ccccc3)=NN(c3ccc(Br)cc3)C2C1=O (stereo unspecified),22,i,u,u,-5,-66,-2,14,
COc1cc2c(cc1OC)C1(C)N(CC2)C(C(C)=O)=NN1c1ccc(Cl)cc1 (stereo unspecified),5,i,0,-7,-23,-1,-2,9,
O=C1CCCC2(O)C1C(c1cccc(Br)c1)NC(=O)N2Cc1ccccc1 (stereo unspecified),7,i,0,-8,x,4,4,-4,
OC1(c2ccc(Br)cc2)CCN(Cc2cccc(Br)c2)CC1,-10,i,-4,-14,4,3,1,12,
CC(C)(C)NC(=O)C(c1ccncc1)N(Cc1cccs1)C(=O)Cn1nnc(-c2ccc(F)cc2)n1 (stereo unspecified),-5,i,-12,13,-15,-43,-23,-15,
C=CCNc1ccc(F)c(F)c1N1CCCCCC1=O,-2,i,-6,4,-7,-6,-1,x,
COc1ccc(NC(=O)CN(C)C(=O)CCSc2ccc(F)cc2)cc1,x,x,x,x,5,3,-8,-16,
O=C(NN1CCOCC1)NC12CC3CC(CC(C3)C1)C2,-3,i,2,3,x,1,1,17,
CSCC[C@H](NC(=O)NCCc1ccc(F)cc1)C(=O)O,-6,i,-12,-3,-16,2,-1,x,
COc1ccc(C(C(=O)NCC2CCCO2)N(C(=O)CNC(=O)c2ccco2)c2cc(C)ccc2C)cc1OC (stereo unspecified),-7,i,-8,-1,14,0,2,-15,
O=C1C=C(c2cccnc2)CCC1,-3,i,x,x,9,4,2,-12,
Cc1cc(F)cc(-c2cc(C(=O)NCc3ccccc3)[nH]n2)c1,x,x,x,x,-41,-1,4,-7,
CCn1c(C(=O)N2CCC(C(=O)NCc3ccc(OC)cc3)CC2)cc2sccc21,-7,i,10,2,13,8,-4,6,
O=C(c1cc(-c2ccncc2)nc2ccc(Cl)cc12)N1CCN(C(=O)C2CCCO2)CC1 (stereo unspecified),-6,i,-3,-4,-22,-1,-1,x,
CCOc1cc(S(=O)(=O)N2CCC(C(N)=O)CC2)ccc1F,-4,i,-5,-11,6,4,3,-36,
c1ccc(-c2ccc(-c3nc(-c4cccnc4)no3)cc2)cc1,18,i,0,-4,-24,-7,-14,-190,
Cc1nn(-c2ccccc2)c(C)c1C(=O)NCc1ccc(F)cc1,-4,i,-4,3,x,7,6,-34,
CCOc1ccccc1NC(=O)NC1CC2CCCC(C1)N2Cc1nnnn1CCc1ccccc1 (stereo unspecified),-18,i,-8,-6,1,-1,-1,-83,
O=C(c1ccco1)N1CCN(C(=O)N2CCOCC2)CC1,-7,x,7,7,-24,-5,-5,x,
O=C(O)CCC(=O)Nc1sc2c(c1C(=O)Nc1cccc3ccccc13)CCCCC2,12,i,1.4*,58*,-11,-16,8,33,eIF4H inh retest=97*;PABP FP inh retest=81*
CCN(CC)C(=O)c1cccc(NC(=O)C2CCN(C(=O)c3cccs3)CC2)c1,-15,x,x,x,-4,1,-3,7,
CCCNC(=O)N(C)C[C@H]1Oc2ncc(Br)cc2C(=O)N([C@H](C)CO)C[C@H]1C,x,x,x,x,2,0,5,-46,
CCOC(=O)c1sc(N=NC2=C(O)CC(C)(C)CC2=O)c(C(=O)OCC)c1C,-9,i,-2,60*,-9,1,1,15,eIF4H inh retest=73*;PABP FP inh retest=39
O=C(O)CSC1CC(=O)N(c2cccc(Cl)c2)C1=O (stereo unspecified),-10,i,-2,-10,-19,0,1,-79,
# Following part:
SMILES,CSC inhib,Rce1 inhib,PABP FP inh,eIF4H inh,Yeast UUG start,MT1-MMP act inh,MT1-MMP act inh RFP,Env fusion inh,others
CN(C)S(=O)(=O)c1ccc(C(=O)NCc2ccccc2)cc1,-5,i,-4,3,x,9,0,x,
CCOc1ccc(CCNC(=O)COC(=O)c2cccnc2Cl)cc1OCC,-7,i,x,x,-3,2,0,-5,
COc1ccc(S(=O)(=O)N2CCOC2CNC(=O)C(=O)NCCCN2CCCC2=O)cc1OC (stereo unspecified),x,x,x,x,0,-3,2,-6,
CCOC(=O)c1ccc(N=c2sc(C(=O)OC)cc(=O)n2C2CC2)cc1,-10,i,x,x,-4,0,1,-14,
CCCCC(=O)Nc1nnc(-c2ccco2)o1,-5,i,10,-1,x,-1,4,8,
CCOC(=O)Cn1c(CN2CCc3ccccc3C2)nc2c1c(=O)n(C)c(=O)n2C,-6,i,-1,-7,0,-6,-10,-10,
CCOc1cc(CNCc2ccncc2)cc(Br)c1OCc1ccc(F)cc1,9,i,-3,1,-19,-16,-26,63*,
COc1ccc(CN2CCN(C(=O)Cn3ncn4cccc4c3=O)CC2)c(OC)c1OC,x,i,4,-13,4,1,-7,11,
COc1ccc2c(c1OC)C(=O)N(c1ccccc1)C2=O,3,x,7,-2,x,-2,2,13,
CN1CCCN(C(=O)c2ccc(Cl)s2)CC1,-12,i,0,-12,-10,-4,0,-2,
Cc1ccc(CC(C(=O)O)C(C)C(=O)Nc2ccc(F)cc2)cc1 (stereo unspecified),2,i,-2,-15,-18,-3,0,6,
O=c1c(-c2nc3ccccc3s2)cccn1Cc1ccc(Cl)c(Cl)c1,45,i,-2,-11,x,-2,-5,-34,
O=C(NCCN1CCOCC1)c1cc2ccccc2oc1=O,10,i,14,-6,-8,3,6,4,
CN(Cc1ccc(Cl)s1)C(=O)CSc1nnc(C2CC2)n1C1CC1,-3,x,x,x,-16,1,1,-4,
Oc1ccccc1/C=C/c1noc(-c2ccccc2O)n1,-2,i,52*,3,x,0,0,-94,
CC(C)CCn1cnc2c(oc3nc4c(cc32)CCCC4)c1=O,4,i,2,-12,x,4,-1,-31,
COc1cc(CNCc2cc(OC)ccc2OC)cc(OC)c1,2,i,2,10,-21,4,3,-2,
Cn1c2c(c3cc([N+](=O)[O-])ccc31)CCCC2,-4,i,-3,-3,-13,-1,1,-5,
Cc1cc(C(=O)OCC(=O)Nc2cccc(S(N)(=O)=O)c2)c2ccccc2n1,-5,i,8,14,-7,0,-4,-2,
CCC(=O)NCCC(c1ccco1)c1ccccc1OC (stereo unspecified),-7,i,66,6,-5,0,3,x,eIF4H inh retest=-9;PABP FP inh retest=0
O=C(Nc1nnc([C@H]2C[C@H](O)[C@@H](CO)O2)s1)NC1CCCCC1,x,x,x,x,-23,-2,1,25,
O=S(=O)(c1ccc(Cl)cc1)n1nnc2ccccc21,-21,x,-2,-6,-17,0,6,-51,
Cc1noc(C(F)(F)F)c1C(=O)NNC(=O)c1ccccc1,-3,x,-14,3,x,-2,4,12,
O=C(CN1CCCC1)NC12CC3CC(CC(C3)C1)C2,-15,i,-3,-8,-15,3,7,x,
CCOC(=O)CC(NC(=O)CCc1c(C)nc2ncnn2c1C)c1ccc(C)cc1 (stereo unspecified),-13,i,-2,-1,x,0,-2,9,
# (next part)
SMILES,CSC inhib,Rce1 inhib,PABP FP inh,eIF4H inh,Yeast UUG start,MT1-MMP act inh,MT1-MMP act inh RFP,Env fusion inh,others
O=C1NCCCc2c1oc1ccc(O)cc21,-8,i,-6,3,-2,-4,-5,-84,
CC(=O)N1c2ccc(S(=O)(=O)NCCC(=O)Nc3ccc(F)cc3C)cc2CC1C (stereo unspecified),12,i,-1,-6,-13,0,1,-2,
CCc1ccccc1NC(=S)N(CCN1CCCCCC1)Cc1ccco1,10,i,16,-6,x,-1,2,9,
CCOc1ccccc1N(CC)C(=O)c1cc2c(s1)-c1ccccc1S(=O)(=O)C2,x,x,x,x,-18,5,0,-37,
Nc1ccccc1-n1c(=O)n(Cc2ccccc2F)c(=O)c2[nH]cnc21,-11,i,0,2,-11,1,5,-4,
CCN(CC)C(=O)c1[nH]cnc1C(=O)NC1CCN(C(=O)OC(C)(C)C)CC1,3,x,x,x,-13,-3,4,-12,
OC1(c2ccc(OC(F)F)cc2)CSC(=Nc2cccnc2)N1Cc1ccco1 (stereo unspecified),x,i,4,-4,x,-2,-11,27,
Cc1noc(NC(=O)c2cccc(C(F)(F)F)c2)c1Cl,-2,i,16,-7,x,-1,0,-10,
O=C(c1ccccc1F)N1CCCC(C(=O)N2CCN(c3ccccc3)CC2)C1 (stereo unspecified),-6,i,-4,-8,x,0,0,-5,
Nc1nc(Cl)cc(NCCc2ccccc2)n1,4,i,-7,-1,x,x,x,-5,
O=C(NCc1cccnc1)c1ccc2nc([C@@H]3O[C@H](CO)[C@H](O)[C@H](O)[C@H]3O)[nH]c2c1,x,x,x,x,14,4,8,-10,
CN(C)S(=O)(=O)c1cccc(NC(=S)NN=C(Cc2ccccc2)Cc2ccccc2)c1,-7,i,4,0,x,7,4,x,
CCC(C)NC(=O)C(Cc1ccccc1)NS(=O)(=O)c1ccc2c(c1)CCC(=O)N2 (stereo unspecified),-22,i,16,-5,-24,1,3,6,
CCOc1cc(C(=O)O)cc(Cl)c1OCC#N,-4,i,15,18,-5,4,6,x,
CC(=O)/C(=N\Nc1ccccc1)Sc1cccc2cccnc12,-4,i,4,-4,-15,-15,-7,x,
Cc1nc(SCCOc2ccccc2)[nH]c(=O)c1Cc1ccccc1,-2,i,-8,-7,x,2,-1,13,
Cn1c(NC(=O)c2ccco2)cc(=O)n(C)c1=O,-10,i,5,-5,-12,-2,-2,x,
Cc1ccc(S(=O)(=O)Nc2ccccc2/C=N/c2nc3ccccc3n2C)cc1,23,x,10,4,x,2,1,x,
COc1cc(C(C(=O)NC(C)(C)C)N(Cc2ccccc2)C(=O)c2cnccn2)cc(OC)c1OC (stereo unspecified),-8,i,9,-12,-7,0,-3,x,
CCC/C=C/c1ccc(CN2C(CC(C)C)C(=O)N(Cc3cn(CCOCOC)nn3)CCS2(=O)=O)cc1 (stereo unspecified),x,x,x,x,-11,-1,-18,11,
CCC(=O)NNC(=O)c1cc(COc2cc(Cl)cc(Cl)c2)on1,13,i,-10,-8,x,-1,1,15,
Cc1ccccc1C(=O)OC(C)CN1CCOCC1 (stereo unspecified),-7,i,-4,-7,-12,1,0,8,
COc1ccc(-c2cc(C(=O)N3CC(C)CC(C)C3)c3ccccc3n2)cc1 (stereo unspecified),9,i,x,x,-11,-3,-4,x,
C=CCNC(=O)COC(=O)c1cc(S(=O)(=O)N2CCOCC2)ccc1N1CCCCC1,-4,x,-10,6,-13,-6,-10,-28,
COC(C(=O)NNC(=O)Cc1ccc(Cl)cc1)c1ccccc1 (stereo unspecified),-9,i,0,3,x,4,-1,8,
CCOCCCNCC(O)c1ccccc1 (stereo unspecified),1,i,-13,-3,-11,-2,2,14,
COc1ccc(-c2csc(/C(C#N)=C(\O)CSc3nccn3C)n2)cc1OC,6,i,27,-13,-15,-13,7,x,

# Source: PubChem BioAssay
